# eIF4H inh – inhibitors of RNA binding by human eIF4H. eIF4H fluorescence polarization binding assay. inhibition, % at 35 µM. 0.94% of 290,000 active. AID 2012;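 active = 50% or more with normal probe brightness, or confirmed in later tests; inconclusive = above 50% with abnormal brightness, or retests that disagree; inactive = below 50% or failed in later tests; about a fifth of its hits are not listed in these tables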;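 note: calls also rest on retests at 20 µM and on dose response follow-up; 0% = protein and probe with vehicle and 100% = probe without protein; strong numbers were not always called active; many hits fall short of the cut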
# CSC inhib – blocks cancer stem cells; cancer stem cell-like cells viability, luminescence; inhibition, % at 7.5 µM; 1.1% of 300,000 active; AID 2717;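 active = mean at 75% or more and at least half the replicates too; inconclusive = mean and replicates disagree; tested in HMLE shEcad cells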;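 note: 0% = median of negative and 100% = median of positive control wells; the first replicate is given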
# Yeast UUG start – alters start codon recognition fidelity in yeast; S. cerevisiae UUG-firefly luciferase reporter, luminescence/redox ratio; activity score, % at 18.7 µM; 0.13% of 350,000 active; AID 602363;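 active = replicate mean at a twofold rise or more, about +100% in these data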;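 note: firefly luciferase made from a UUG start codon reports start codon fidelity; reporter light over untreated wells divided by growth signal over untreated wells; some hits fall short of that in this replicate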
# Rce1 inhib – inhibitors of yeast Ras-converting enzyme. yeast membranes, quenched prenylated peptide cleavage fluorescence. calls only. 0.27% of 290,000 active;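 active = fall in fluorescence gain of 50% or more versus controls, with final raw signal at or below 3038400; inconclusive = same 50% fall but final raw signal above 3038400; inactive = fall in fluorescence gain under 50%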;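 note: plate controls were neutral control wells for no effect and wells lacking membranes for full effect; tested at 10 µM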
# Target sequence (Q03530 whole entry, looked up): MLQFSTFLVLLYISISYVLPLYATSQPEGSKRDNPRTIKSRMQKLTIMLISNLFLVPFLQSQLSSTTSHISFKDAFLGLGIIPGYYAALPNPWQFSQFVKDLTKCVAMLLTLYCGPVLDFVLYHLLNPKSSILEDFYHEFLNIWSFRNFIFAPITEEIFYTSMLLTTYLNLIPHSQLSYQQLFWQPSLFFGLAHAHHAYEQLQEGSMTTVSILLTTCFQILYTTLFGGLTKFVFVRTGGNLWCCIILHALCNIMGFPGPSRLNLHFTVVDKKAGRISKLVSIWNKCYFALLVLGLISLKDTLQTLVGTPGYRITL
# PABP polyA inh – blocks human PABP binding to poly(A) RNA | inhibition, % at 35 µM | fluorescence polarization | P11940 | 1% of 290,000 active;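 active = 50% or more with normal probe brightness, or confirmed in later tests; inconclusive = above 50% with abnormal brightness, or retests that disagree; inactive = below 50% or failed in later tests; about a fifth of its hits are not listed in these tables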;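 note: calls also rest on retests at 20 µM and on dose response follow-up; controls were probe without protein and protein plus probe with vehicle; some compounds called inactive have numbers as strong as hits; many hits fall short of the cut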
# Target sequence (P11940 whole entry, looked up): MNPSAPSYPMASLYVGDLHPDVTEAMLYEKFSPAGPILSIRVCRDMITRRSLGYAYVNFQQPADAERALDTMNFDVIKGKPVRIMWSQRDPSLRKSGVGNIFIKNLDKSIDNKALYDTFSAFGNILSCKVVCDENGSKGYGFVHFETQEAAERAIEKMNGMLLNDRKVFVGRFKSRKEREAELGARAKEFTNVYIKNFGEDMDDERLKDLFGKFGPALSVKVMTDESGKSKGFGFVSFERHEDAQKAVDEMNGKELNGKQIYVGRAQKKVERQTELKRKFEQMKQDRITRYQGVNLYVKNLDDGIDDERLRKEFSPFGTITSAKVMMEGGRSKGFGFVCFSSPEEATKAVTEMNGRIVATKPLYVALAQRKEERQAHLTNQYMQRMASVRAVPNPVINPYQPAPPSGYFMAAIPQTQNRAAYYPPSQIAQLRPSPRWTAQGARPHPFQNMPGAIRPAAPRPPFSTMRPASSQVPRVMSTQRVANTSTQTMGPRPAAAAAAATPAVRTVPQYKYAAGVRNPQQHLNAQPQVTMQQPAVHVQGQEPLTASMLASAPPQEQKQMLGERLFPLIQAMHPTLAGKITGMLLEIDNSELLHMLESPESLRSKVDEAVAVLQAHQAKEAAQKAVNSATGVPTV
# Env fusion inh – HIV envelope-mediated fusion inhibition; HeLa-JRFL Env/CEM21 cell fusion, luciferase; inhibition, % at 12.3 µM; 1.1% of 360,000 active; AID 651610;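 active = mean replicate inhibition score of at least 50 and every replicate individually at or above 50; inconclusive = only one of the two criteria met; inactive = mean below 50 and not all replicates reaching 50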;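 note: 0% = plate neutral controls and 100% = maraviroc near 300 nM; one replicate is shown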
# MT1-MMP act inh – blocks activation of human MT1-MMP | P50281 | 0.061% of 360,000 active | GFP/RFP ratio change, % at 20 µM | AID 651647 | HT1080 RFP-PRO-GFP cells, GFP/RFP ratio fluorescence, overnight; percent of plate control window, DMSO zero;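 active = GFP/RFP ratio change of at least 30% with cell ATP level not reduced by more than half and red fluorescence within 50% of control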; note: strong numbers were not always called active
#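 Assay system – RFP-PRO-GFP reporter HT1080 cells · Compound dosing – single dose of 20 µM compound, 1% DMSO final · Incubation – overnight compound exposure at 37 °C · Measure – GFP/RFP fluorescence ratio · Benchmarks – DMSO wells and RFP-L50D-GFP cells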
# MT1-MMP act inh RFP – second read-out of MT1-MMP act inh, no call of its own (marks repeat the call); RFP signal change, %; measured here: RFP expression control read;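 0 = vehicle wells; hits needed this value within 50% of zero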
# Active calls of the source: *; i = inactive; ? = inconclusive; . = no result given.
SMILES	Yeast UUG start	MT1-MMP act inh	Rce1 inhib	Env fusion inh	MT1-MMP act inh RFP	PABP polyA inh	eIF4H inh	CSC inhib
S=c1[nH]nc(COc2ccccc2)n1-c1ccc(Cl)cc1	-18	0	.	11	0	.	.	.
CC(=O)/C(=C\N(C)C)Sc1ccc(Cl)cc1	.	2	i	7	3	-4	-1	-4
N/C(Cc1ccc(Cl)cc1Cl)=N\OC(=O)Cc1ccc(Cl)cc1	.	2	i	12	4	5	7	-1
CCOC(=O)N1CCN(C(=O)Nc2ccc3nc(-c4ccccn4)c(-c4ccccn4)nc3c2)CC1	-17	-9	i	.	0	11	18	-3
Cc1ccc(S(=O)(=O)Cc2ccc(C(=O)N3CCN(c4ccc(F)cc4)CC3)o2)cc1	-10	-1	i	-41	-5	6	-5	31
Cc1cc(SCC(=O)OC(C)C(=O)N(C)c2ccccc2)nc2ccccc12 (stereo not given)	5	2	i	3	4	.	.	6
CCOc1ccc(CN2CCC(n3nccc3NC(=O)c3ccccc3OC)CC2)cc1	-13	1	i	.	-2	-4	6	-5
COc1ccc(NC(=S)Nc2ccc(OC(F)F)cc2)cn1	.	-6	i	-14	-5	0	?	1
Cc1ccc(NC(=O)Cn2cnc3c(cnn3C(C)(C)C)c2=O)cc1	-15	0	i	.	1	-16	-4	12
Cc1ccc(F)cc1CNC(=O)C1CCC(=O)N(CC2CCCCC2)C1 (stereo not given)	-4	-1	i	-12	-1	4	0	.
CCOC(=O)[C@H]1[C@H]2COc3ccc(C)cc3[C@@H]2N2C(=O)c3ccc(F)cc3NC(=O)[C@@]12C	-15	-7	.	-29	-5	.	.	-4
Cc1c(NC(=O)c2ccccc2N(C)S(=O)(=O)c2ccccc2)c(=O)n(-c2ccccc2)n1C	-16	8	i	-34	5	2	-8	3
COc1ccc(C(=O)NC2CCN(C(=O)NCc3ccccc3)CC2)cc1	-10	3	i	-3	9	-6	-14	-8
COC(=O)c1ccc(C)c(NC(=O)Cc2coc3cc(OC)ccc23)c1	-18	3	i	.	0	3	-8	2
CCc1ccc2c(c1)C(c1ccc([N+](=O)[O-])cc1)=NNC(c1ccccc1)=N2	.	1	i	2	1	5	-2	-21
O=C(NC1CCCC1)C(c1cccs1)N(C(=O)c1ccco1)c1ccc2c(c1)OCO2 (stereo not given)	-7	1	i	?	3	-17	14	-26
O=S(=O)(Nc1ccc(C(O)(C(F)(F)F)C(F)(F)F)cc1)c1cccc2ccccc12	1	1	.	3	-5	.	.	.
CCOc1ccc(N(CC(=O)N2CCN(c3ccccc3F)CC2)S(=O)(=O)c2c(C)noc2C)cc1	-9	0	i	2	-3	4	-14	14
Nn1c(SCC(=O)Nc2c(F)cc(F)cc2Br)nnc1C1CCCCC1	1	1	i	6	-3	0	4	-11
COc1ccc(OCC(=O)Nc2ccc(NC(=O)c3ccco3)c(C)c2)cc1	-13	-1	i	-13	0	9	6	.
Cc1cc(C(C)(C)C)cc(C)c1CCNC(=O)c1ccc[n+]([O-])c1	-7	11	.	4	6	6	0	2
COCCn1c(N2CCN(c3ccc(OC)cc3)CC2)nc2c1c(=O)[nH]c(=O)n2C	-9	-1	i	.	-2	-6	6	-11
O=C1NC[C@@H](c2ccccc2)OC(=O)[C@@H](Cc2ccc(F)cc2)C/C=C\C[C@@H]1CC(=O)N(CCO)Cc1ccccc1	1	5	.	-65	-11	.	.	20
O=C(NCCc1c[nH]c2ccccc12)/C(=C/c1cccnc1)NC(=O)c1ccccc1	.	3	i	-13	5	-1	5	20
COc1ccc(-c2noc(CSc3nc(N)cc(=O)[nH]3)n2)cc1	17	15	i	20	-26	-1	2	-21
CC(C)(C)c1ccc(C(O)c2ncc(-c3ccccc3Cl)[nH]2)cc1 (stereo not given)	-12	-1	.	18	-3	.	.	.
COc1ccc(C(=O)CCC(=O)N2CCN(c3ccccc3)CC2)cc1	-7	0	i	-8	-4	4	-7	.
CC[C@]12C(=O)N(C)C[C@H]([C@@H]3C(=O)N(Cc4ccccc4)C(=O)[C@@H]31)N2C(=O)c1ccccc1	20	2	.	-15	1	.	.	.
Nc1ccc2c(c1)sc1ccccc12	.	2	i	-36	6	5	0	6
COc1cc(/C=N/N2CCN(Cc3ccccc3)CC2)cc(OC)c1OC	-10	3	.	32	4	.	.	.
CCCCSc1nc2ccccc2n1CC(=O)O	.	2	i	.	5	-1	-8	.
CCC(CC)C(=O)N(C)c1c(C)nc2c(OCc3cc(Cl)cc(Cl)c3)cccn12	-14	-13	.	23	-19	.	.	.
COc1ccc(C2CC(c3cccs3)=NN2C(=O)CCCC(=O)O)cc1OC (stereo not given)	-9	4	.	-7	5	.	.	.
CCOc1ccc2[nH]c3c(NCCN(CC)CC)ncnc3c2c1	-3	4	i	-17	-3	-1	-16	37
CN(Cc1ccc(F)cc1)C(=O)CCc1nnc(-c2ccccc2)o1	.	-2	i	-22	-1	-1	-8	0
Cc1ccc(C(=O)N(CC(C)C)c2nc3ccccc3s2)o1	-12	1	i	2	0	0	-4	8
Cc1c(NC(=O)/C=C/c2ccc(S(=O)(=O)N3CCOCC3)cc2)c(=O)n(-c2ccccc2)n1C	.	-1	i	17	3	-12	6	.
C(=C\c1ccccc1)/CNCC1CCCO1 (stereo not given)	-11	10	i	-6	12	13	-14	-26
O=C(Cc1coc2ccc3ccccc3c12)Nc1nnc(C2CC2)s1	-18	-9	i	-14	-1	-11	-6	-2
Cc1ccc(N(CCC#N)C(=O)COC(=O)c2nc3nc(C)cc(C)n3n2)cc1	-5	1	i	-36	5	.	.	-2
CC1Cc2ccccc2N1C(=O)COC(=O)c1cccnc1Cl (stereo not given)	-13	-5	i	.	0	-2	4	.
O=C(COc1ccc(F)cc1Cl)Nc1ccc(S(=O)(=O)Nc2nccs2)cc1	2	-3	i	-1	2	.	.	0
COc1ccccc1CNC(=O)C1CCCN(S(=O)(=O)c2cccc3nsnc23)C1 (stereo not given)	-22	-9	i	-3	-3	-10	-8	-8
Clc1ccc(CN(CC2CCCO2)C(c2cccs2)c2nnnn2C2CCCC2)cc1 (stereo not given)	-7	-22	i	117*	-28	-3	-8	50
CCOC(=O)C1=C(C)NC2=C(C(=O)C(C(=O)OCC)C(c3cccc(OC)c3)C2)C1c1ccccn1 (stereo not given)	-3	1	i	.	1	-3	-10	7
Cc1ccsc1C1CC(=O)NC2=C1C(=O)CC(C)(C)C2 (stereo not given)	3	3	i	.	2	-13	-6	1
Cc1ccc(N(C(=O)c2csnn2)C(C(=O)NC2CCCC2)c2cccnc2)cc1 (stereo not given)	5	-5	i	1	0	9	-3	-14
COc1ccc(/C=C(\C#N)c2c[nH]c3ccccc23)cc1	-12	0	i	-240	-12	-3	-9	102*
O=C(O)c1cccc2c1C(=O)N(C1CCCC1)C2	-9	3	i	-5	-1	1	-2	-3
CCCCNC(=O)CCCCCNS(=O)(=O)c1ccc(Br)cc1	.	0	i	3	1	-7	3	-22
O=C(NCCN1CCOCC1)c1cc2n(n1)C(C(F)(F)F)CC(c1ccc(F)cc1)N2 (stereo not given)	-8	-4	i	19	1	-7	-1	45
COC(=O)c1ccccc1NC(=O)CSc1n[nH]c(CC(C)C)n1	-14	4	i	.	4	3	9	2
COc1ccc(-c2nc(NC(C)=O)sc2-c2ccc(OC)cc2)cc1	1	-2	i	15	-2	2	3	-3
O=C(OCCN1CCCCC1)c1ccc(Cl)cc1	-19	-4	i	.	-1	0	-8	-13
CCOc1ccc(C(=O)NC2CCN(CC(=O)NCc3cccs3)CC2)cc1	.	-7	i	-11	0	-6	-6	6
COCCn1c(SCC(=O)Nc2ccccc2OC)nnc1-c1ccco1	-11	-3	i	15	-3	0	-4	.

# Carrying on:
SMILES	Yeast UUG start	MT1-MMP act inh	Rce1 inhib	Env fusion inh	MT1-MMP act inh RFP	PABP polyA inh	eIF4H inh	CSC inhib
COC(=O)C(Cc1ccccc1)NC(=O)CC(C)CC(=O)Nc1ccc(C)cc1 (stereo not given)	47	3	i	-280	2	-5	-10	-7
O=C(CSCc1ccccc1)Nc1nccs1	-27	3	i	.	6	-2	8	-17
CCOc1ccc(-c2nc(CSc3nnc(N)s3)cs2)cc1OC	-19	1	i	.	-3	8	7	28
CC(C)COc1ccc(CNC(=S)N/N=C/c2ccc([N+](=O)[O-])cc2)cc1	-23	4	i	.	6	7	5	-4
CC1CCCC(NC(=O)CN(C)CC(=O)Nc2cccc(F)c2)C1C (stereo not given)	-4	2	.	-225	1	.	.	.
CN(C(=O)c1cccc(NC(=O)Cc2cccc(NC(=O)C3CCCN(C(=O)C4CCC4)C3)c2)c1)C1CCC1 (stereo not given)	-21	1	.	85*	-3	.	.	.
CCOC(=O)c1c(NC(=O)COC)sc2c1CCCC2	-1	-1	i	-35	1	4	-4	-1
CCOC(=O)CNC(=O)N1CCCC(CNS(=O)(=O)Cc2ccccc2)C1 (stereo not given)	-11	-2	i	-6	-4	2	-9	-6
O=C(O)CCC(=O)Nc1cccc(C(=O)c2ccccc2)c1	-8	3	i	-3	6	4	-2	.
COc1ccccc1N(CC(=O)N/N=C(\C)c1ccc(F)cc1)S(=O)(=O)c1ccccc1	-13	-3	.	-25	1	.	.	-11
Clc1ccc(N=NN2CCOCC2)cc1	-7	7	.	-13	3	-5	5	20
COC(=O)Nc1c(-c2ccccc2)nc2ccccn12	-25	-2	i	-21	-3	-4	6	.

# By substructure, those above with a Cl atom (ten)
SMILES	Yeast UUG start	MT1-MMP act inh	Rce1 inhib	Env fusion inh	MT1-MMP act inh RFP	PABP polyA inh	eIF4H inh	CSC inhib
S=c1[nH]nc(COc2ccccc2)n1-c1ccc(Cl)cc1	-18	0	.	11	0	.	.	.
CC(=O)/C(=C\N(C)C)Sc1ccc(Cl)cc1	.	2	i	7	3	-4	-1	-4
N/C(Cc1ccc(Cl)cc1Cl)=N\OC(=O)Cc1ccc(Cl)cc1	.	2	i	12	4	5	7	-1
CC(C)(C)c1ccc(C(O)c2ncc(-c3ccccc3Cl)[nH]2)cc1 (stereo not given)	-12	-1	.	18	-3	.	.	.
CCC(CC)C(=O)N(C)c1c(C)nc2c(OCc3cc(Cl)cc(Cl)c3)cccn12	-14	-13	.	23	-19	.	.	.
CC1Cc2ccccc2N1C(=O)COC(=O)c1cccnc1Cl (stereo not given)	-13	-5	i	.	0	-2	4	.
O=C(COc1ccc(F)cc1Cl)Nc1ccc(S(=O)(=O)Nc2nccs2)cc1	2	-3	i	-1	2	.	.	0
Clc1ccc(CN(CC2CCCO2)C(c2cccs2)c2nnnn2C2CCCC2)cc1 (stereo not given)	-7	-22	i	117*	-28	-3	-8	50
O=C(OCCN1CCCCC1)c1ccc(Cl)cc1	-19	-4	i	.	-1	0	-8	-13
Clc1ccc(N=NN2CCOCC2)cc1	-7	7	.	-13	3	-5	5	20

# Screening results deposited in PubChem BioAssay by several laboratories.
